Vaccinia inh – blocks a specific stage of Vaccinia orthopoxvirus infection, primary screen, cell-based, single point. hit rate 0.01% among 89,000. activity change (mCherry), % (concentration not given with the values). Vaccinia-infected cells, mCherry/Venus stage reporter fluorescence; stronger effect = lower value; some inactives read as strong as hits;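 active = mCherry past -33% and 40 or more points under the early reporter, replicates agreeing; inconclusive = past -33% without that gap or agreement; tested in A549 cells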;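 note: scaled between vehicle wells and reference inhibitor wells; 23 nL library stock went into each well; one replicate is shown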
Vaccinia inh Venus – further read-out of Vaccinia inh, marked with its call; activity change (Venus), %; measured here: Venus reporter, other viral stage;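 negative = less Venus signal; first of two replicates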
* marks the source's active call; other numbers are inactive results; u = inconclusive; x = not tested or not shown; & = joins results of further samples. Only part of the results is shown; rates above refer to the full screens.

SMILES | Vaccinia inh | Vaccinia inh Venus
COc1ccc(NC(=O)Nc2ccc3c(c2)C(=O)N([C@@H](C)CO)C[C@H](C)[C@H](CN(C)Cc2ccc4c(c2)OCO4)OCCCC[C@H](C)O3)cc1 | u | x
CN1C(=O)c2cc(NS(C)(=O)=O)ccc2OC[C@H]2O[C@H](CC(=O)NCc3ccc(-c4ccccc4)cc3)CC[C@H]21 | -5 | 0
Cc1ccc(S(=O)(=O)Nc2ccc3c(c2)C(=O)N([C@H](C)CO)C[C@H](C)[C@@H](CN(C)C(=O)C2CCCCC2)OCCCC[C@@H](C)O3)cc1 | 1 | -2
Cc1ccc(S(=O)(=O)Nc2ccc3c(c2)C(=O)N([C@H](C)CO)C[C@H](C)[C@H](CN(C)S(=O)(=O)c2c(C)noc2C)OCCCC[C@@H](C)O3)cc1 | -6 | -5
C[C@H](CO)N1C[C@H](C)[C@H](CN(C)Cc2ccncc2)OCCCC[C@H](C)Oc2ccc(NC(=O)c3ccccc3)cc2C1=O | -9 | 1
COc1ccc2c3c(n(C)c2c1)[C@H](CO)NCC31CN(C(=O)Nc2ccc3c(c2)OCO3)C1 | -6 | -5
C[C@H]1CN([C@@H](C)CO)S(=O)(=O)c2ccc(C3=CCCC3)cc2O[C@H]1CN(C)Cc1ccccc1F | -4 | -5
COCC#Cc1cnc2c(c1)C(=O)N([C@@H](C)CO)C[C@@H](C)[C@@H](CN(C)C(=O)Nc1ccccc1F)O2 | 24 | 13
O=C(C[C@@H]1C=C[C@@H](NC(=O)c2ccc3c(c2)OCO3)[C@H](CO)O1)NC1Cc2ccccc2C1 | -1 | 12
COc1cccc(-c2ccccc2[C@H]2[C@@H](C#N)N(C(=O)Cc3ccccc3)[C@@H]2CO)c1 | -2 | 2
COc1ccc(S(=O)(=O)N(C)C[C@@H]2Oc3c(NC(=O)c4ccncc4)cccc3C(=O)N([C@H](C)CO)C[C@H]2C)cc1 | 3 | 2
C[C@@H]1CN([C@@H](C)CO)C(=O)c2cc(NC(=O)Nc3ccc4c(c3)OCO4)ccc2O[C@@H]1CN(C)Cc1ccccc1 | u | x
COc1cccc(CN(C)C[C@H]2OCc3cnnn3CCCC(=O)N([C@@H](C)CO)C[C@H]2C)c1 | 11 | 12
O=C(NCCc1ccncc1)[C@H]1N[C@H]2c3ccc(/C=C/c4ccccc4)c(=O)n3C[C@H]2[C@@H]1CO | 15 | 19
COc1cccc(CN(C)C[C@@H]2OCc3cnnn3CCCC(=O)N([C@@H](C)CO)C[C@@H]2C)c1 | 3 | 4
CO[C@@H]1CN(C)C(=O)c2ccc(NC(=O)c3nc4ccccc4s3)cc2OC[C@H](C)N(Cc2cncnc2)C[C@H]1C | -2 | -5
CCCC#Cc1ccc2c(c1)O[C@H](CN(C)C(=O)NCCC)[C@@H](C)CN([C@H](C)CO)S2(=O)=O | -2 | -7
C[C@H]1CN([C@@H](C)CO)C(=O)c2cccc(NC(=O)Nc3ccc4c(c3)OCO4)c2O[C@H]1CN(C)Cc1ccccc1 | -11 | -6
CC(C)NC(=O)N1CC(=O)N2[C@H](C1)[C@@H](c1ccc(C#CCN(C)C)cc1)[C@@H]2CO | 17 | 5
COC(=O)C[C@@H]1CC[C@@H]2[C@@H](COc3ccc(NC(=O)c4cscn4)cc3C(=O)N2C)O1 | -10 | 2
Cc1noc(C)c1NC(=O)N(C)C[C@@H]1Oc2c(NC(=O)Nc3ccc(C(F)(F)F)cc3)cccc2C(=O)N([C@H](C)CO)C[C@@H]1C | -7 | -5
CCC(=O)N1CC(=O)N2[C@@H](CO)[C@@H](c3ccc(C#Cc4cccc(F)c4)cc3)[C@@H]2C1 | -29 | -35
COCC(=O)N1CC(=O)N2[C@H](CO)[C@@H](c3ccc(-c4cccnc4)cc3)[C@@H]2C1 | 31 | 13
Cc1ccccc1S(=O)(=O)N1CC(=O)N2[C@H](CO)[C@H](c3ccc(C#CCC4CCCC4)cc3)[C@@H]2C1 | -21 | -19
Cc1ccc(S(=O)(=O)N(C)C[C@@H]2OCc3ccccc3-c3c(n(C)c4ccccc34)C(=O)N([C@@H](C)CO)C[C@H]2C)cc1 | u | x
C[C@H](CO)N1C[C@H](C)[C@H](CN(C)Cc2ccc(Oc3ccccc3)cc2)Oc2ccc(NC(=O)NC3CCCCC3)cc2C1=O | u | x
C[C@H]1CN([C@@H](C)CO)C(=O)c2cccc(NS(=O)(=O)c3cn(C)cn3)c2O[C@H]1CN(C)Cc1ccncc1 | 11 | 9
COC(=O)C[C@H]1C[C@@H]2c3cc(NC(=O)CC4CC4)ccc3O[C@@H]2[C@H](CO)O1 | 14 | 7
N#Cc1cccc(-c2ccc([C@@H]3[C@H](CO)N4CCCCN(C(=O)Nc5ccccc5)C[C@@H]34)cc2)c1 | u | x
C[C@@H]1CN([C@@H](C)CO)C(=O)c2cc(C3=CCCC3)cnc2O[C@H]1CN(C)C(=O)c1ccc2c(c1)OCO2 | -7 | -7
COc1ccc2c3c([nH]c2c1)[C@@H](CO)N(C(=O)C1CCC1)CC31CN(C)C1 | 13 | 10
O=C(C[C@@H]1C=C[C@@H](NS(=O)(=O)c2ccccc2)[C@H](CO)O1)N1CCc2ccccc2C1 | 6 | -2
C[C@H]1CN([C@@H](C)CO)C(=O)c2cc(C#CCN(C)C)cnc2O[C@@H]1CN(C)Cc1ccccn1 | 10 | 3
C[C@@H]1CN([C@@H](C)CO)C(=O)c2cc(-c3ccc(F)cc3)cnc2O[C@@H]1CN(C)CC1CCCC1 | u | x
C[C@H](CO)N1C[C@H](C)[C@H](CN(C)C(=O)Nc2cccc3ccccc23)Oc2ccc(NS(=O)(=O)c3ccc(Cl)cc3)cc2C1=O | 25 | 22
C[C@@H]1CN([C@@H](C)CO)C(=O)c2cc(-c3ccc(F)cc3)cnc2O[C@@H]1CN(C)C(=O)Nc1ccccc1F | -19 | -13

A draw from above in order of SMILES length, high to low.
SMILES | Vaccinia inh | Vaccinia inh Venus
C[C@@H]1CN([C@@H](C)CO)C(=O)c2cc(C3=CCCC3)cnc2O[C@H]1CN(C)C(=O)c1ccc2c(c1)OCO2 | -7 | -7
N#Cc1cccc(-c2ccc([C@@H]3[C@H](CO)N4CCCCN(C(=O)Nc5ccccc5)C[C@@H]34)cc2)c1 | u | x
C[C@@H]1CN([C@@H](C)CO)C(=O)c2cc(-c3ccc(F)cc3)cnc2O[C@@H]1CN(C)CC1CCCC1 | u | x
O=C(C[C@@H]1C=C[C@@H](NS(=O)(=O)c2ccccc2)[C@H](CO)O1)N1CCc2ccccc2C1 | 6 | -2

New compounds follow:
SMILES | Vaccinia inh | Vaccinia inh Venus
C[C@H](CO)N1C[C@H](C)[C@H](CN(C)C(=O)NC2CCCC2)Oc2ncc(C#CCN(C)C)cc2C1=O | 17 | 8
OC[C@H]1[C@H](c2ccc(/C=C/c3ccccc3)cc2)[C@@H]2CN(Cc3cccnc3)CCCCN12 | -24 | -17
C[C@@H]1CCCCO[C@@H](CN(C)Cc2ccncc2)[C@H](C)CN([C@@H](C)CO)C(=O)c2cc(NC(=O)CCC(F)(F)F)ccc2O1 | -11 | -5
C[C@@H]1CN([C@@H](C)CO)C(=O)c2cc(NC(=O)CCCCCC(=O)Nc3ccccc3N)ccc2O[C@H]1CN(C)S(=O)(=O)c1cccs1 | 18 | -1
O=C(Cc1ccncc1)N1CCCCN2[C@@H](CO)[C@@H](c3ccc(-c4ccncc4)cc3)[C@@H]2C1 | 27 | 13
CN1CCN(C(=O)C[C@@H]2C=C[C@H](NC(=O)c3ccc4c(c3)OCO4)[C@H](CO)O2)CC1 | -5 | 3
CN(C)C(=O)C[C@H]1C=C[C@H](NC(=O)Nc2cccc(F)c2)[C@H](CO)O1 | 11 | 7
Cc1ccccc1-c1cnc2c(c1)C(=O)N([C@H](C)CO)C[C@@H](C)[C@@H](CN(C)Cc1cncnc1)O2 | -2 | 2
O=C(Cc1ccccn1)NCC[C@H]1CC[C@H](NC(=O)c2ccccc2F)[C@@H](CO)O1 | 4 | 6
O=C(N[C@H]1CC[C@H](CCNS(=O)(=O)c2cccc(Cl)c2)O[C@@H]1CO)c1ccncc1 | 8 | 7
C[C@H]1CN([C@@H](C)CO)C(=O)Cc2cc(NC(=O)c3ccncc3)ccc2O[C@H]1CN(C)S(C)(=O)=O | 20 | 11
C[C@H]1CN([C@@H](C)CO)C(=O)c2cc(/C=C/c3ccccc3)cnc2O[C@H]1CN(C)Cc1ccc2c(c1)OCO2 | -16 | -13
C[C@H](CO)N1C[C@H](C)[C@@H](CN(C)C(=O)Nc2cc(F)ccc2F)Oc2ncc(-c3cccc(F)c3)cc2C1=O | 2&-2 | -4&2
O=C(C[C@H]1CC[C@@H]2[C@H](COC[C@@H](O)CN2C(=O)Cc2ccccc2)O1)NC1CCC1 | -6 | -3
O=C(NCC[C@H]1CC[C@H](NC(=O)c2ccc3c(c2)OCO3)[C@@H](CO)O1)Nc1cc(F)ccc1F | -17 | -13
CC(C)NC(=O)Nc1ccc2c(c1)C(=O)N([C@@H](C)CO)C[C@@H](C)[C@@H](CN(C)C(=O)NC1CCCCC1)O2 | 3 | 7
COc1cccc(C#Cc2ccc3c(c2)O[C@@H](CN(C)S(=O)(=O)c2ccccc2F)[C@@H](C)CN([C@@H](C)CO)S3(=O)=O)c1 | 8 | 9
COC(=O)[C@@H]1[C@@H](CO)[C@@H]2Cn3c(ccc(C4=CCCC4)c3=O)[C@H]1N2CC1CCCCC1 | 8 | 14
CC=Cc1ccc2n(c1=O)C[C@H]1[C@H](CO)[C@@H](C(=O)Nc3ccc(-c4ccccc4)cc3)N(C)[C@@H]21 (mixture of isomers) | -9 | -9
C[C@H](CO)N1C[C@H](C)[C@H](CN(C)C(=O)C2CC2)Oc2cc(-c3ccc(C#N)cc3)ccc2S1(=O)=O | -3 | -6
CNC[C@H]1OCCCC[C@H](C)Oc2ccc(NC(=O)Nc3ccccc3)cc2C(=O)N([C@H](C)CO)C[C@H]1C | 14 | 10
C[C@H]1CN([C@@H](C)CO)C(=O)c2cc(NC(=O)Cc3ccccc3)ccc2O[C@H]1CN(C)Cc1ccccc1 | -6 | 2
O=C(C[C@H]1CC[C@@H](NC(=O)c2cccc(F)c2)[C@H](CO)O1)NCc1ccc(Oc2ccccc2)cc1 | -20 | -19
COc1ccc2c3c([nH]c2c1)[C@@H](CO)N(Cc1ccccc1)CC31CCN(S(C)(=O)=O)CC1 | 17 | 14
CCC(=O)N[C@@H]1CC[C@H](CCn2cc(CN(C)C)nn2)O[C@@H]1CO | 12 | 13
CNC[C@@H]1Oc2ccc(NS(=O)(=O)c3cn(C)cn3)cc2C(=O)N([C@H](C)CO)C[C@H]1C | 17 | 4
CO[C@H]1CN(C)C(=O)c2ccc(NS(C)(=O)=O)cc2OC[C@@H](C)N(CCC(F)(F)F)C[C@H]1C | 0 | -2
C[C@H](CO)N1C[C@H](C)[C@H](CN(C)S(=O)(=O)c2cccs2)Oc2ncc(Br)cc2C1=O | 16 | 1
COc1ccc(S(=O)(=O)N(C)C[C@@H]2Oc3ccc(NS(=O)(=O)c4ccc(Cl)cc4)cc3C(=O)N([C@@H](C)CO)C[C@H]2C)cc1 | 14 | 5
CC(=O)N1[C@H](CO)[C@H](c2ccc(C#CC3CCCCC3)cc2)[C@H]1CNCC(C)C | -4 | 9
CCCNC(=O)C[C@@H]1C[C@@H]2c3cc(NS(=O)(=O)c4ccc(F)cc4)ccc3O[C@@H]2[C@@H](CO)O1 | 10 | 3
COc1cccc(C#Cc2ccc([C@@H]3[C@H](C#N)N[C@H]3CO)cc2)c1 | 2 | 8
CC(=O)N(C)C[C@@H]1Oc2ncc(-c3cccc(F)c3)cc2C(=O)N([C@@H](C)CO)C[C@@H]1C | 12 | 10
C[C@H]1CN([C@@H](C)CO)C(=O)Cc2cc(NC(=O)C3CCCCC3)ccc2O[C@@H]1CN(C)Cc1ccc2c(c1)OCO2 | -16 | -10
C[C@@H](O)C#Cc1ccc([C@@H]2[C@H]3CN(S(=O)(=O)c4ccccc4)CCCCN3[C@H]2CO)cc1 | 23 | 12
COc1ccccc1NC(=O)N[C@@H]1CC[C@H](CC(=O)N[C@H](C)c2ccccc2)O[C@H]1CO | 9 | 13
Cc1noc(C)c1S(=O)(=O)Nc1cccc2c1O[C@@H](CN(C)C(=O)NC(C)C)[C@@H](C)CN([C@H](C)CO)C2=O | 15 | 11
CO[C@H]1CN(C)C(=O)c2cc(NC(=O)C3CC3)ccc2OC[C@H](C)N(CC2CCOCC2)C[C@@H]1C | 3 | 11
O=C(N[C@H]1C=C[C@H](CC(=O)N2CCc3ccccc3C2)O[C@H]1CO)C1CC1 | 7 | 7

Of the compounds above, these have a cyano group.
SMILES | Vaccinia inh | Vaccinia inh Venus
COc1cccc(-c2ccccc2[C@H]2[C@@H](C#N)N(C(=O)Cc3ccccc3)[C@@H]2CO)c1 | -2 | 2
N#Cc1cccc(-c2ccc([C@@H]3[C@H](CO)N4CCCCN(C(=O)Nc5ccccc5)C[C@@H]34)cc2)c1 | u | x
C[C@H](CO)N1C[C@H](C)[C@H](CN(C)C(=O)C2CC2)Oc2cc(-c3ccc(C#N)cc3)ccc2S1(=O)=O | -3 | -6
COc1cccc(C#Cc2ccc([C@@H]3[C@H](C#N)N[C@H]3CO)cc2)c1 | 2 | 8

Bioassay records as filed in PubChem BioAssay.
